NS1 function inh = qHTS Assay for Inhibitors of Influenza NS1 Protein Function | S. cerevisiae slowed by influenza A NS1, growth recovery by OD600 | Potency, µM (doses to about 46.1 µM), for the others: at the top dose activity, positive = more growth | actives 0.4% (n = 270,000); note: actives are rising curves; nearly all actives have a fitted effect of over 50% in size
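Compounds were scored for reversing the slow growth caused by influenza A NS1 in S. cerevisiae, measured by optical density at 600 nm. Assay medium contained 2% galactose at pH 6.0; NS1-free yeast of the same strain were the positive control.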
Cruzain Triton = qHTS Assay for Promiscuous and Specific Inhibitors of Cruzain (with detergent). AID 1478, 2009. Potency, µM, for inactives: max response, negative = inhibition, actives largely listed as inhibitors. actives 0.43% (n = 200,000). purified cruzain, Z-FR-AMC fluorescence, 0.01% Triton. Cruzipain (Trypanosoma cruzi), P25779; active = well fitted curve in the direction sought with a large enough effect; inconclusive = small, poorly fitted or top-dose-only effect, or another doubt; inactive = no such curve, though single readings can be large; an effect the other way counts as inactive or inconclusive;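 note: plate controls were neutral wells for no effect and buffer without enzyme for full effect; nearly all actives have a fitted effect of over 40% in size; top concentration of the series not given in the record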
Target sequence (P25779 123-467 limits assumed): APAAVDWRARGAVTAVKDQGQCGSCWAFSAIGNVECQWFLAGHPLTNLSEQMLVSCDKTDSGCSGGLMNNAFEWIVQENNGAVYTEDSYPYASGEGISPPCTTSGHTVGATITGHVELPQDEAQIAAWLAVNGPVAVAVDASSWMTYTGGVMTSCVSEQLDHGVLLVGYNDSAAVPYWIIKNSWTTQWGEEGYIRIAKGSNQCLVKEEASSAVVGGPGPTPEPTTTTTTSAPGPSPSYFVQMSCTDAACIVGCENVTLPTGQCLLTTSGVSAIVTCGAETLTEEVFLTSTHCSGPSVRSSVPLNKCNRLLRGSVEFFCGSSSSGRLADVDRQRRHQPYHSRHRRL
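Purified cruzain (1.5 nM final) was preincubated with compounds for 15 min at room temperature in 100 mM sodium acetate pH 5.5, 5 mM DTT, 0.01% Triton X-100. Reaction started with 2 uM Z-FR-AMC; AMC fluorescence change over 60 s gave activity.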
SARS PLP yeast = qHTS of Yeast-based Assay for SARS-CoV PLP. S. cerevisiae expressing SARS-CoV PLpro, growth rescue; control for the full effect not named in the record. Potency, µM (top dose mostly 32.9 µM), for inactives: top-dose activity, positive = growth rescue. actives 0.19% (n = 330,000). AID 485353, 2010; note: 0% is about no effect; nearly all actives have a fitted effect of over 55% in size; growth read by luminescence after 48 h
StopGo reporter = High Throughput Screening for Foot and Mouth Disease Virus Antivirals | human cells with a luciferase reporter of 2A StopGo recoding; control for the full effect not named in the record | Potency, µM (doses to about 57.9 µM), without a hit: at the highest dose signal change, negative = less light | actives 1.2% (n = 410,000) | AID 1159524, 2015; active = well fitted falling curve with a large enough effect; inconclusive = small, poorly fitted or top-dose-only effect; inactive = no such curve, though single readings can be large or run the other way; tested in HEK293T cells; note: % is set by controls: 0 for no effect and ±100 for the full control effect; nearly all actives have a fitted effect of over 45% in size; luciferase light after 4 h
LASV entry inh = qHTS for Inhibitors of binding or entry into cells for Lassa Virus; Lassa virus pseudotype entry inhibition, cell reporter; control for the full effect not named in the record; Potency, µM (series often up to 37.9 µM), for inactives: at the highest dose activity change, negative = inhibition, usual class: inhibitors; actives 1.2% (n = 300,000); active means well fitted inhibition curve with a large enough effect; inconclusive means small, poorly fitted or top-dose-only effect, or effect the other way; inactive means flat fitted curve, though single readings scatter; tested in HEK293 cells; note: % is set by controls: 0 for no effect and ±100 for the full control effect; nearly all actives have a fitted effect of over 50% in size; luciferase read-out
MARV entry inh = qHTS for inhibitors of binding or entry into cells for Marburg Virus. Marburg virus pseudotyped entry inhibition, cell reporter; control for the full effect not named in the record; about a third of the inactives were read at about 46 µM. Potency, µM (series often up to 37.8 µM), for inactives: top-dose activity change, negative = inhibition, hits mostly inhibitors. actives 1.8% (n = 300,000); active = well fitted inhibition curve with a large enough effect; inconclusive = small, poorly fitted or top-dose-only effect, or effect the other way; inactive = flat fitted curve, though single readings scatter; tested in HEK293 cells; about a fifth of its hits are not listed in these tables; note: % is set by controls: 0 for no effect and ±100 for the full control effect; luciferase read-out
RE007 growth inh = qHTS Assay for Inhibitors of the HIV-1 protein Vpr | S. pombe RE007 Vpr strain, BacTiter-Glo ATP luminescence, 24 h; control for the full effect not named in the record | Potency, µM (series often up to 92.2 µM), inactives show at the highest dose activity change, negative = less growth | actives 0.21% (n = 360,000) | AID 651644, 2012; active = well fitted falling curve with a large enough effect; inconclusive = small, poorly fitted or top-dose-only effect; inactive = no such curve, though single readings can be large or run the other way;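 note: % is set by controls: 0 for no effect and ±100 for the full control effect; nearly all actives have a fitted effect of over 50% in size; the assay follows cell death caused by Vpr and the record does not say whether a fall means rescue or toxicity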
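Fission yeast strain RE007, carrying one chromosomally integrated HIV-1 vpr copy, was seeded at OD 0.01 in PMG+AL medium with 23 nL pinned compound. After 24 h at 30 °C and 99% humidity, viability was read by BacTiter-Glo luminescence.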
Cruzain noTriton = qHTS Assay for Promiscuous and Specific Inhibitors of Cruzain (without detergent); Potency, µM, inactives show max response, negative = inhibition, most hits filed as inhibitors; actives 2.3% (n = 200,000); AID 1476, 2009; Cruzipain (Trypanosoma cruzi), P25779; purified cruzain, Z-FR-AMC fluorescence, no detergent; active = well fitted curve in the direction sought with a large enough effect; inconclusive = small, poorly fitted or top-dose-only effect, or another doubt; inactive = no such curve, though single readings can be large; an effect the other way counts as inactive or inconclusive;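 note: plate controls were enzyme without inhibitor for no effect and buffer without enzyme for full effect; nearly all actives have a fitted effect of over 40% in size; top concentration of the series not given in the record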
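Purified cruzain at 1.5 nM, pre-incubated 15 min with compound at room temperature in 100 mM sodium acetate pH 5.5, 5 mM DTT, 0.00005% Triton X-100. Reaction started with 2 uM Z-FR-AMC; AMC fluorescence increase over 60 s gives rate.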
An asterisk follows results filed as active; ? = inconclusive; nt = no result given; & = joins results of further samples; [ ] = another dose, or the depositor's remark. Unless noted, calls come from the whole dose curve; as a rule, active means well fitted rising curve with a large enough effect; inconclusive means small, poorly fitted or top-dose-only effect; inactive means no such curve, though single readings can be large or run the other way. Potency is the fitted concentration of half-maximal effect.

SMILES	NS1 function inh	Cruzain Triton	SARS PLP yeast	StopGo reporter	LASV entry inh	MARV entry inh	RE007 growth inh	Cruzain noTriton
O=C(NNc1c2ccccc2nc2ccccc12)C12CC3CC(CC(C3)C1)C2	3%	nt	-4%	4%	-3%	-1%[46.1 µM]	12%	nt
COc1ccc(NC(=O)/C(C#N)=C\C=C\c2ccco2)cc1	18%	-5.8%	-6%	-9%	?	?	-11%	-3%
COCc1cc(C)nc2sc3c(=O)n(Cc4ccco4)nnc3c12	1%	-3.5%	-5%	0%	nt	nt	-6%	-12%
Cn1cc(P(=S)(N2CCOCC2)N2CCOCC2)cc1P(=O)(N1CCOCC1)N1CCOCC1	4%	nt	6%	-6%	0%	-9%[46.1 µM]	-5%	nt
O=c1o[nH]c(-c2ccccc2)c1C1=NCCCCC1	-7%	3.1%	-2%	-12%	-28%	8%	-2%	-7%
CCN(CC)CC(O)Cn1c2ccccc2c2ccccc21 (stereo unspecified)	-8%	0.6%	-3%	-26%	?	13µM*	-9%	2%
COc1ccccc1CCNC(=O)c1cc(COc2cccc(C(F)(F)F)c2)on1	-10%	nt	-5%	0%	nt	nt	-2%	nt
Clc1ccccc1-c1nnc2sc(-c3ccco3)nn12	4%	-0.1%	-3%	0%	-6%	-8%&-8%	3%	-1%
CC(C)(Oc1ccc(Cl)cc1)C(=O)NCc1ccco1	?	-8.4%	-10%	-4%	-1%	-9%	7%	14%
Cc1ccc(/C(N)=N/OC(=O)CCCc2ccccc2)cc1	16%	nt	-3%	12%	26%[46.1 µM]	4%[46.1 µM]	-20%	nt
FC(F)(F)c1nc2ccccc2n2c(-c3ccc(Cl)cc3)nnc12	6%	5.4%	3%	?	?	?	-2%	9%
COc1ccccc1NS(=O)(=O)c1cccc(NS(=O)(=O)c2ccc(Cl)c(C(=O)O)c2)c1	nt	nt	20%	-12%	3%	?	-4%	nt
Cc1ccc(NC(=O)c2nnn(-c3cccc(C(F)(F)F)c3)c2N)cc1	nt	nt	2%	6%	-21%	11%[46.1 µM]	-5%	nt
O=C(COc1coc(CN2CCc3ccccc3C2)cc1=O)Nc1cccc(Cl)c1	nt	nt	3%	-23%	4%	-8%[46.1 µM]	-14%	nt
O=S(=O)(c1ccccc1)c1nc(-c2ccccc2)oc1NCc1cccnc1	-43%	0.7%	1%	14%	-8%	-18%	10%	-4%
O=C(COC(=O)COc1ccccc1)Nc1ccc(S(=O)(=O)N2CCOCC2)cc1	nt	nt	0%	-14%	15%[46.1 µM]	12%[46.1 µM]	-10%	nt
CCC(=O)Nc1ccc(NC(=O)C23CC4CC(CC(C4)C2)C3)cn1	-5%	2.1%	-2%	56%[activator]	nt	-4%	nt	2%
CCN(CC)c1ccc(C(=O)NCc2ccc3c(c2)CCN3C(=O)c2cccc(C)c2)cc1	nt	-2.1%	nt	-14%	-21%[46.1 µM]	nt	nt	?
CCn1cc(C(=O)NCCN(C)CCc2ccccc2)c(=O)c2cc(S(=O)(=O)N(C)C)ccc21	3%	-2.1%	-1%	9%	-6%	?	11%	-6%
O=C(Nc1ccc2c(c1)OCO2)C1CCCCC1	-8%	nt	-2%	0%	nt	nt	-15%	nt
CCN(CC)CC(=O)Nc1ccccc1SCC(=O)Nc1ccsc1C(=O)OC	7%	nt	0%	0%	-22%	?	-10%	nt
CC1(C)Cc2c(c(N3CCOCC3)nc3sc4c(=O)[nH]cnc4c23)CS1	14%	-6.3%	0%	-30%	?	-1%&-1%	-1%	?
O=C(NCC(c1ccc2c(c1)OCO2)N1CCOCC1)c1ccccc1F (stereo unspecified)	nt	-1.5%	nt	26%	-3%[46.1 µM]	nt	nt	-17%
COc1ccc(NC(=O)Nc2nnc(N3CCCCC3C)s2)cc1OC (stereo unspecified)	?	-2.7%	16%	-21%	-4%	29%	7%	8%

In the list so far, three have a thiophene ring, fused or not.
SMILES	NS1 function inh	Cruzain Triton	SARS PLP yeast	StopGo reporter	LASV entry inh	MARV entry inh	RE007 growth inh	Cruzain noTriton
COCc1cc(C)nc2sc3c(=O)n(Cc4ccco4)nnc3c12	1%	-3.5%	-5%	0%	nt	nt	-6%	-12%
CCN(CC)CC(=O)Nc1ccccc1SCC(=O)Nc1ccsc1C(=O)OC	7%	nt	0%	0%	-22%	?	-10%	nt
CC1(C)Cc2c(c(N3CCOCC3)nc3sc4c(=O)[nH]cnc4c23)CS1	14%	-6.3%	0%	-30%	?	-1%&-1%	-1%	?

Continued:
SMILES	NS1 function inh	Cruzain Triton	SARS PLP yeast	StopGo reporter	LASV entry inh	MARV entry inh	RE007 growth inh	Cruzain noTriton
O=C(Nc1cccc(Cl)c1)OCc1cnc(Cl)s1	-21%	3.9%	-20%	9%	17%	6%	?	-3%
Cc1cc(C)c2c(=O)n(CC(=O)NCCCN3CCOCC3)sc2n1	3%	-6.4%	-25%	-14%	nt	nt	?	4%
O=[N+]([O-])c1ccccc1N/N=C/c1ccc2c(c1)OCO2	-5%	nt	-1%	32%[activator]	-29%	?	-3%	nt
Cc1cc(C)nc(NC(=O)c2cc([N+](=O)[O-])cc([N+](=O)[O-])c2)n1	4%	0.2%	-2%	0%	-15%	1%	0%	4%
N/C(=N\N=C\c1ccc([N+](=O)[O-])cc1)c1nonc1N	2%	nt	2%	9%	-18%[46.1 µM]	11%[46.1 µM]	13%	nt
Cc1ccc(N2C(=O)c3cccc4c(Oc5ccccc5[N+](=O)[O-])ccc(c34)C2=O)c(C)c1	16%	-6.9%	1%	-18%	24%	?	6%	25µM*
O=C1CC(c2ccc(Cl)cc2)SC(N(c2ccccc2)c2ccccc2)=N1 (stereo unspecified)	20%	-6.1%	15%	?	?	-38%	11%	1%
CC1CCCCN1c1cc(C#N)c(C#N)cc1[N+](=O)[O-] (stereo unspecified)	-83%	-4.2%	-2%	nt	-18%	-2%	6%	-3%
Cc1ccccc1S(=O)(=O)Cc1ccc(C(=O)N2CCN(C3CCCCC3)CC2)o1	?	-6.6%	-8%	7%	nt	nt	11%	-7%
CCOC(=O)C1CCCN(CCc2ccccc2)C1 (stereo unspecified)	4%	nt	4%	-13%	nt	nt	-9%	nt
O=C1/C(=C/c2ccncc2)CCc2ccccc21	-8%	nt	-19%	?	nt	nt	?	nt
Cc1cc(C)cc(CC2CC(=O)N(c3ccc4c(c3)OCCO4)C2=O)c1 (stereo unspecified)	-7%	-7.4%	1%	-18%	7%	-1%	11%	-2%
CCOc1ccc(NC(=O)c2cccc3c(=O)c4c([nH]c23)CCCC4)cc1	nt	-5.5%	nt	-13%	29%[46.1 µM]	27%[46.1 µM]	nt	-7%
CN(CC(=O)N1CCN(Cc2ccccc2)CC1)S(=O)(=O)c1ccc(Br)cc1	-24%	nt	-1%	?	-15%	?	-20%	nt
CCC(CC)c1nnc(NC(=O)c2c(C)nn(Cc3ccccc3Cl)c2C)s1	15%	1.4%	9%	-4%	-23%	0%	0%	26%
CCOCCc1nnc(NC(=O)CS(=O)(=O)c2ccc(C)cc2)s1	10%	nt	6%	3%	11%[46.1 µM]	6%[46.1 µM]	5%	nt
O=C(Cn1c(=O)n(CCCCC(=O)NC2CCCC2)c(=O)c2ccccc21)NCCC1=CCCCC1	13%	4.6%	4%	-20%	3%	1%	4%	2%
Cn1nnc2c(N3CCN(c4ccccc4)CC3)ncnc21	nt	-3.3%	nt	-9%	8%[46.1 µM]	nt	nt	-1%
O=C(NCCCN1CCOCC1)c1ccc(NS(=O)(=O)c2cccc([N+](=O)[O-])c2)cc1	1%	nt	1%	-21%	3%	10%	-17%	nt
CC1CC(C)CN(C2CCN(Cc3cccnc3)CC2)C1 (stereo unspecified)	2%	4.5%	12%	nt	nt	-5%	nt	4%
O=C(CCN1c2ccccc2Sc2ccccc21)OCc1nnc(-c2ccccc2)o1	9%	-1.7%	-3%	-13%	?	?	-3%	-11%
Cc1nc(CSc2nnc3scc(-c4ccc(Cl)cc4)n23)cs1	-10%	-2.2%	-1%	-28%	3%	0%	11%	-5%
CCN1C(=O)c2ccccc2Sc2ccc(NC(=O)c3cccc(C)c3)cc21	nt	-3.3%	nt	0%	?	nt	nt	-20%
Cc1ccc(Nc2cc(C)nc3ncnn23)cc1	-2%	nt	4%	-14%	-1%	6%	-4%	nt
c1cncc(-c2nnc(C3CCCCC3)o2)c1	-54%	1.1%	-1%	21%	-1%	14%	25%	19%
CC(C)c1ccc(NC2CCCN(C(=O)c3n[nH]c4c3CCC4)C2)cc1 (stereo unspecified)	1%	nt	4%	-18%	nt	nt	1%	nt
CCOC(=O)c1[nH]c(C)c(/C(O)=C2\C(=O)C(=O)N(CCN(C)C)C2c2cccc(OC)c2OC)c1C (stereo unspecified)	4%	0.3%	-5%	-1%	-15%	3%	2%	-4%
CCCCNCCOCCOc1ccc(C)cc1Br	-14%	1.2%	-14%	-18%	?	?	-1%	-2%
COc1ccccc1OCc1cc(C(=O)NCc2ccc(N3CCCC3=O)cc2)no1	-3%	nt	0%	6%	nt	nt	-3%	nt
Cc1nc(-n2[nH]c3c(c2=O)CCCC3)[nH]c(=O)c1Cc1ccccc1	-36%	-0.9%	6%	?	?	?	9%	6%
O=C(NC(=S)NCC1COc2ccccc2O1)c1ccccc1 (stereo unspecified)	9%	-6.7%	-31%	1%	6%	3%	-24%	3%
Cc1cccc(-c2nc(=S)c3c(n2Cc2ccco2)CCCC3)c1	1%	-2.5%	0%	-2%	6%	-25%	11%	-17%

Assay outcomes as filed in PubChem BioAssay.
